CapD inh: Bacillus anthracis CapD inhibitors, primary screen, biochemical, fluorescence intensity. CapD gamma-glutamyltranspeptidase (Bacillus anthracis Ames Ancestor). purified CapD enzyme, fluorescence intensity read-out; stronger effect = lower value; some hits fall short of the stated cut. z-score (concentration not given with the values). 140,000 compounds, 0.23% hits;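 active = z-score under -4 in either of two replicates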;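 note: stock transfer was 100 nL into about 40 µL; score is relative to mean and spread of the plate; one replicate is shown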
AID504770: growth inhibition of E. coli YBA685, primary screen, V. cholerae RctB inhibitors | E. coli YBA685 rctB-dependent plasmid, OD600 growth, 3 h; stronger effect = lower value | z-score (concentration not given with the values) | 130,000 compounds, 0.27% hits | AID 504770, 2011;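 active = z-score under -2 on both plates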;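 note: wells of about 30 µL received 100 nL stock; score is relative to mean and SD of the test wells; the first replicate is given; strong numbers were not always called active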
The depositor's hits bear a star; nt = not tested or not shown.

Molecule	CapD inh	AID504770
O[C@H]1C2C3CC4C5C3C1C5C1(OCCO1)C42 (stereo partly specified)	-0.34	-1.2
CCOC(=O)CC(=O)N/N=C/c1csc([N+](=O)[O-])c1	0.01	nt
c1ccc2c(c1)N1CCCCCC1N2Cc1ccncc1 (stereo unspecified)	-0.6	0
COc1ccc(Cl)cc1S(=O)(=O)NC1CCN(Cc2cc3c(cc2Cl)OCO3)C1 (stereo unspecified)	-0.36	nt
CCCC1CCC(c2ccc(C(=O)CCN(C)C)cc2)CC1 (stereo unspecified)	0.08	-2.3
COC(=O)/C=C/S(=O)(=O)c1ccc(Br)cc1	-0.2	-2.8*
CCOC(=O)C12CCCC(C(=O)OCC)(CC1=O)C(=O)C2	1.1	-0.1
CCS(=O)(=O)N(C)c1ccc(C(=O)Nc2ccc(OC)cc2OC)cc1	-0.89	-0.4
CCN(CC(=O)c1ccc(Cl)s1)C1CCCCC1	nt	-0.2
CCOC(=O)c1c(CN(C)C)n(C)c2c(O)c(N=NC(N)=O)c3ccc(Br)cc3c12	-0.51	1.6
CCN1C(=O)/C(=c2\sc3nc(-c4ccccc4OC)nn3c2=O)c2cc(Br)ccc21	0.17	0.6
CCOc1ccc(C(=O)CC(N)C(=O)O)cc1 (stereo unspecified)	-0.36	-0.7
O=C(O)CCCC(=O)Nc1ccc(Oc2ncnc3cc(Cl)ccc23)nc1	1.2	-0.15
O=C(NC1CCCC1)c1cc2c(s1)CSC2	14	0.3
COc1ccc(NC(=O)CC2c3ccccc3Oc3ccccc32)c(OC)n1	0.12	0.95
COC(=O)c1cn(CC(=O)NCc2ccco2)c2ccccc12	-0.11	-0.35
CN(C)S(=O)(=O)c1ccc2c3c(cccc13)C(=O)N2C(=O)c1ccco1	nt	0.65
Cc1nc(N2CCOCC2)[nH]c(=O)c1CCC(C)C	-0.045	-0.5
CCCCCCc1ccc(C(=O)NNC(=O)c2noc(C)c2-c2csc(-c3ccccc3)n2)cc1	0.29	nt
CCOC(=O)Nc1cc(C(=O)OCC)c(C)nc1C	-0.045	0.7
N#CCCN(CCc1ccccn1)C(=O)Nc1ccccc1	-2.4	1.4
CN(C(=O)c1cn(C)c(=O)c2ccccc12)c1ccccc1	1.1	0.05
COc1cc(C)c(C(C)C)cc1S(=O)(=O)N1CCCC(C)C1 (stereo unspecified)	-1.2	-0.7
COC(=O)c1cc(OC)c(OC)cc1NS(=O)(=O)c1ccc(Cl)cc1	-0.36	nt
NS(=O)(=O)c1ccc(NC(=S)N2CCC(O)CC2)cc1	0.095	-0.15
CCC(=O)Nc1nc2ccccc2n1CCN(CC)CC	-0.075	-0.45
COc1ccc(C2(O)CN(c3cccc(C)c3)C3=[N+]2CCCC3)cc1 (stereo unspecified)	-0.46	nt
COc1ccc(CCNC(=O)c2ccccc2OC)cc1	nt	0.75
CN(Cc1ccccc1)S(=O)(=O)Cc1ccccc1	0.17	0.9
CCN(C(=O)c1cc(S(=O)(=O)N2CCc3ccccc32)cn1C)c1ccc(OC)cc1	-0.29	0.65

Full records from above:
O=C(NC1CCCC1)c1cc2c(s1)CSC2 as listed: CapD inh: 14; AID504770: 0.3
CCN(C(=O)c1cc(S(=O)(=O)N2CCc3ccccc32)cn1C)c1ccc(OC)cc1 as listed: CapD inh: -0.29; AID504770: 0.65

(listing goes on)
Molecule	CapD inh	AID504770
CC(=O)Oc1ccc(/C=N/NC(=O)CC2Sc3ccccc3NC2=O)cc1 (stereo unspecified)	-0.29	nt
COc1cc(CN2CCCN(C)CC2)cc(OC)c1OC	0.16	0.15
CCc1cccc(NC(=O)C2CCCN2S(=O)(=O)c2ccc3c(c2)CC(C)N3C(C)=O)c1 (stereo unspecified)	-0.74	2.3
CCC1CCCCN1C(=O)CSc1nnc(C)n2c1cc1sccc12 (stereo unspecified)	-0.12	-0.45
NCCS(=O)(=O)NC1CCCCC1	nt	-0.55
CCOC(=O)C1(C)C=C(Nc2ccc(C(C)=O)cc2)C(=O)N1c1ccc(C(C)=O)cc1 (stereo unspecified)	-0.46	nt
Cc1cc(C)cc(N=C2NC(=O)/C(=C/c3ccc(N(C)C)cc3)S2)c1	-0.58	nt
CCN(CC)c1ccc(C2NC(=O)NC(C)=C2C(=O)OCCOc2ccccc2)cc1 (stereo unspecified)	20	nt
COc1ccc(C)c2sc(N3CCN(c4nc5c(OC)ccc(C)c5s4)CC3)nc12	0.44	0.5
O=C1Nc2ccccc2O/C1=C\c1ccc(C(=O)NCCC2=CCCCC2)cc1	-0.14	-0.05
CSC(=NC12CC3CC(CC(C3)C1)C2)NC#N	0.39	0.45
Fc1ccc(OCCc2nc(-c3ccc(C4SCCS4)cc3)no2)cc1	-0.1	1.9
O=C(O)c1ccn2c(C(=O)c3ccccc3)c(-c3ccccc3)cc2c1	-4	-1.4
Cc1cccc(Cn2nc(-c3ccc4c(c3)OCO4)ccc2=O)c1	nt	0.15
CC(Sc1nc2ccccc2c(=O)[nH]1)C(=O)Nc1ccc(N2CCOCC2)cc1 (stereo unspecified)	nt	0.4
O=C(c1cccc(Cl)c1)N1N=C(c2ccc(Br)cc2)CC1(O)C(F)(F)F (stereo unspecified)	-0.49	nt
CC1CCc2cc(F)ccc2N1C(=O)c1cc2ccccc2oc1=O (stereo unspecified)	-0.48	-0.55
NC(=O)COC(=O)c1cnc(Cl)c(Cl)c1	-0.82	-0.5
CCN(C(=O)Nc1cn(C)c(=O)c2ccccc12)c1cc(C)ccc1C	57	-0.4
O=C(Nc1nn2c(-c3ccco3)nnc2s1)c1ccco1	-1.7	-0.55
COCC(C)n1c(COc2ccccc2F)nnc1SCc1c(C)noc1C (stereo unspecified)	nt	1.3
CCOC1C(OCC)N(S(=O)(=O)c2ccc(C)cc2)CCN1S(=O)(=O)c1ccc(C)cc1 (stereo unspecified)	-0.25	-0.05
CC1CC(N(C(=O)c2ccco2)c2ccccc2)c2ccccc2N1 (stereo unspecified)	nt	0.2
O=C(Cc1ccc(Cl)cc1)OCC(=O)N1CCCCCC1	1.1	-0.1
CC(C)c1nc(/N=C/N(C)C)nc(=O)n1C	0.46	0.25
CC(NCC1OCc2ccccc2CO1)c1ccccc1 (stereo unspecified)	2.2	0.85
CCOC(=O)C1=C(CN(Cc2ccco2)C2CCCC2)NC(=O)NC1c1ccc(Cl)cc1 (stereo unspecified)	-1.1	2.5
Cc1[nH]ccc(=O)c1OCC(=O)O	7.6	0.9
O=C(O)c1ccccc1N=CC12c3ccccc3C(c3ccccc31)C1C(=O)N(c3ccccc3[N+](=O)[O-])C(=O)C12 (stereo unspecified)	7	nt
Cc1c(CN(C)C(=O)CSc2nc(-c3ccco3)cc(C(F)(F)F)n2)cnn1C	1.1	-0.15

Next entries.
Molecule	CapD inh	AID504770
CCc1ccc(NC(=O)c2cnc3ccccn3c2=O)cc1	-1.1	-0.75
CCOC(=O)CS(=O)c1sc(C(=O)OCC)c2c1C(=O)CCC2 (stereo unspecified)	-0.29	-0.65
COc1ccc(NC(=O)C(NS(=O)(=O)c2ccc3c(c2)oc(=O)n3C)C(C)C)c(OC)c1 (stereo unspecified)	-0.2	0.1
CCOC(=O)CC(N)c1ccc(C)cc1 (stereo unspecified)	0.26	0.05
Cc1ccccc1NC(=O)c1c(NC(=O)c2ccccc2C)sc2c1CCCCC2	-0.29	nt
CC(=O)N(CCCCN1C(=O)c2ccccc2C1=O)c1ccc(C)cc1	-0.47	-0.25
CCc1cc(=O)oc2cc(C)cc(OCC(=O)C(C)(C)C)c12	-0.36	0.15
Cc1ccc(C)c([C@H]2[C@H](C(=O)c3ccccc3)N3c4ccccc4C=CC3C2(C#N)C#N)c1 (stereo partly specified)	2.5	1.3
COc1cc(Cl)c(C)cc1NCC(O)Cn1nnnc1-c1ccccc1 (stereo unspecified)	-0.57	1.4
Nc1c(C(=O)c2ccccc2)sc2nc3c(cc12)CCCC3	-0.53	0.7
COc1ccccc1Cn1ccn(CC(=O)NCCc2ccccc2)c(=O)c1=O	0.88	0.15
Cn1cc(S(=O)(=O)N2CCOCC2)cc1C(=O)N(CCc1ccccc1)Cc1ccccc1	0.065	-0.15
Cc1ccc(-n2c(C)cc(C3=NN=C(N)SC3)c2C)cc1C	nt	0.95
Cc1ccccc1NC(=O)c1cc2c(s1)-c1ccccc1S(=O)(=O)C2	-3.6	1.2
O=C(Nc1ccc(Cl)cc1)OCc1ccc(Oc2ccccc2)c([N+](=O)[O-])c1	-0.48	nt
Cn1nc(-c2ccccc2)c(CN2CCN(c3ncccn3)CC2)c1Cl	-0.15	nt
CCOC(=O)c1ccc(NN)cc1	-0.005	1.2
O=C1NCCN1C(=O)c1cccc(Cl)c1	0.005	0.1
Cc1nc(Nc2nc(CSc3ccc(Cl)cc3)cc(=O)[nH]2)nc2c(C)cccc12	-0.21	1.5
S=C(Cc1ccc2c(c1)OCCO2)N1CCOCC1	nt	-0.1
Cc1ccc(O)c(C2(O)C(=O)c3ccccc3C2=O)c1	nt	-0.85
N#Cc1ccc(S(=O)(=O)NCCc2ccccn2)cc1	0.12	nt
CCOc1cc(C(=O)Nc2cccc(-c3nc4ccccc4s3)c2C)cc(OCC)c1OCC	0.035	nt
Cc1cc(O)c2c(c1)OC(C)(C)C1=C2CC(C)CC1 (stereo unspecified)	-0.12	nt
S=c1sc2c(N3CCCC3)ncnc2n1-c1ccccc1	-0.81	nt
COc1ccc(N(CC(=O)Nc2cc(OC)ccc2OC)S(=O)(=O)c2ccc(OC)c(OC)c2)cc1	0.08	nt
CC(=O)Oc1ccc(C(C)(C)c2ccc(OC(C)=O)cc2)cc1	-0.31	-0.2
N#Cc1cc(C(=O)Cc2ccc(Cl)cc2)cn1Cc1cccc(Cl)c1	0.01	nt
COC(=O)c1ccccc1NC(=O)Nc1nnc(N2CCCC2)s1	22	-0.2
COC(=O)C(NS(=O)(=O)c1ccc(Br)cc1)C(C)(C)C (stereo unspecified)	-0.42	nt

In another format: entries from further up.
Values run as follows: CapD inh | AID504770
- Cc1ccccc1NC(=O)c1c(NC(=O)c2ccccc2C)sc2c1CCCCC2
    -0.29 | nt
- O=C(Nc1ccc(Cl)cc1)OCc1ccc(Oc2ccccc2)c([N+](=O)[O-])c1
    -0.48 | nt

The listing picks up, starting three compounds before the break.
Molecule	CapD inh	AID504770
N#Cc1cc(C(=O)Cc2ccc(Cl)cc2)cn1Cc1cccc(Cl)c1	0.01	nt
COC(=O)c1ccccc1NC(=O)Nc1nnc(N2CCCC2)s1	22	-0.2
COC(=O)C(NS(=O)(=O)c1ccc(Br)cc1)C(C)(C)C (stereo unspecified)	-0.42	nt
COc1ccccc1N1CCN(C(=O)CNC(=O)Cn2cnc3sc4c(c3c2=O)CCCC4)CC1	-0.19	nt
CCC(=O)OC1(C)CC2CC(CN(C(=O)C3CCCCC3)C2)C1 (stereo unspecified)	-0.29	0.3
O=C1CSC(c2ccc(Cl)cc2)N1c1cc(Cl)ccc1O (stereo unspecified)	-0.12	0.35
CC(C)Cc1nc(C(N)=O)c2[nH]c(=O)n(-c3cccc(Cl)c3)c2n1	5.5	0.45
Cc1ccc(S(=O)(=O)N2CCN(Cc3ccc4c(c3)OCO4)CC2)cc1C	-0.24	0.5
COc1ccc(OC)c(NC(=S)NCCc2cnc[nH]2)c1	-0.25	-1
CCOCCn1cnc2sc(C(=O)NCC(OCC)OCC)c(C)c2c1=O	6	nt
CC1=C(C(=O)NCCN2CCCC2)C2(CCCCCC2)OC1=O	-0.5	0.4
O=C(O)c1cccc(COc2ccc(Cl)cc2)c1	0.37	0.8
CCOC(=O)c1cnc(-c2cccs2)nc1Nc1ccccc1	0.27	0.25
O=C(CSc1nnc(-c2ccncc2)o1)NC(=O)Nc1ccccc1	1.6	1.1
COc1ccc(C2/C(=C(\O)c3ccccc3)C(=O)C(=O)N2c2nc3ccccc3s2)cc1OC (stereo unspecified)	0.08	nt
NS(=O)(=O)c1cc(C(=O)NCC2CCCCC2)ccc1Cl	nt	-0.3
CCn1nccc1C(=O)NC1=C(C#N)CCC1	-2.4	-0.2
CC(C)(C)c1cc(CN2CCCCC2)c(O)c(C(C)(C)C)c1	-0.77	nt
COCCOC(=O)C1=C(N)OC2=C(C(=O)CC(C)(C)C2)C1c1ccncc1 (stereo unspecified)	-0.67	nt
Cc1cccc2nc(CSC(=S)NCc3cccnc3)cn12	-0.35	-3.7*
O=C(Nc1ccc(N2CCOCC2)cc1)Nc1ccc2nc(-c3ccco3)c(-c3ccco3)nc2c1	-3.7	-0.65
COc1ccc(OC)c(-n2cnc3cc(C(=O)NCc4ccccc4Cl)ccc32)c1	-0.055	nt
O=C(CSCc1ccco1)NC1CC1	0.41	0.4
COc1cc(OC)c(NC(=O)C2CCCN(S(=O)(=O)c3ccc4c(c3)oc(=O)n4C)C2)cc1Cl (stereo unspecified)	-0.3	0.2
COc1ccc(C(=O)N/N=C/c2cc(C)n(-c3cccc(C(F)(F)F)c3)c2C)cc1	1.1	nt
CC1CN(Cc2ccccc2)c2ccccc2NC1=O (stereo unspecified)	0.085	-0.8
O=C(c1ccc2nccnc2c1)N1CCCc2ccccc21	-1.3	-0.75
CCC(Sc1nc2ccccc2c2nc(C)nn12)C(=O)Nc1ccc(F)cc1 (stereo unspecified)	-0.35	-0.2
CC(C)(C)NC(=O)CSc1nc2ccccc2[nH]1	-0.43	0

From PubChem
